Screening data: PubChem BioAssay, ICCB-Longwood Screening Facility, Harvard Medical School
VACV E9 pol inh: vaccinia E9 polymerase processive synthesis inhibition; in vitro processive DNA synthesis, absorbance read-out; hits give low values; some inactives read as strong as hits; normalized absorbance, % (no concentration beside the values); 0.94% of 46,000 active; AID 493162;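 active = replicate mean up to 90% and picked by the depositor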;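 note: 100% = median of the test wells of a plate; 100 nL library stock went into each well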
* marks the source's active call; other numbers are inactive results; & = joins results of further samples. An excerpt; rates above refer to the full screens.

SMILES	VACV E9 pol inh
CC(C)N=Cc1c(Cl)nc2sccn12	83
CC1Cc2ccccc2N1C(=O)c1cc2ccccc2oc1=O (stereo unspecified)	91
Cn1ncc(C(=O)O)c1C(F)(F)F	104
COC(=O)C(NC(=O)c1ccc(S(=O)(=O)N2CCOCC2)cc1)C(C)C (stereo unspecified)	100
Cc1ccc(C)c(N2CCN(S(=O)(=O)c3ccc4nc(-c5ccccc5)[nH]c4c3)CC2)c1	96
c1ccc(-n2cnnc2SCc2cn3ccsc3n2)cc1	99
Cc1cc2c(c(=O)[nH]1)C(c1ccc(C(C)C)cc1)C(C#N)=C(N)O2 (stereo unspecified)	95
Cn1c(=NC(=O)c2ccco2)sc2cc(S(C)(=O)=O)ccc21	93
CC1=C(C(=O)Nc2ccccc2)C(c2ccccc2)n2c(s/c(=C\c3cccs3)c2=O)=N1 (stereo unspecified)	99
CCc1ccc(S(=O)(=O)NC2CCCCNC2=O)cc1 (stereo unspecified)	100
COc1ccc(CCC(=O)CCc2ccc(OC)cc2)cc1	81
CC(=O)N=c1scc(-c2ccccc2)n1-c1ccc(C)cc1	101
CC(C)(Oc1ccc(CCNC(=O)c2ccc(Cl)cc2)cc1)C(=O)O	100&97
OC(c1ccccc1)c1nnc(-c2ccccc2)o1 (stereo unspecified)	93
CC(=O)N1CCC(N(C(=O)Nc2ccccc2)C2CCCC2)CC1	103
C=CCNC(=O)c1c(C)cc(C)cc1C	99
CCN(CC)S(=O)(=O)c1ccc(NC(=O)/C=C/c2ccc(F)cc2)cc1	97
O=C(CC1Sc2ccccc2NC1=O)Nc1ccc2c(c1)OCO2 (stereo unspecified)	102
O=C(CSc1nc2ccccc2c(=O)n1C1CC1)c1ccc(Cl)cc1	96
COc1ccc(C2SCCN2C(=S)Nc2cccc(C(F)(F)F)c2)cc1 (stereo unspecified)	101
Cc1ccc(C2C(NC(=O)c3ccccc3)C(=O)N2c2ccc(C)cc2)cc1 (stereo unspecified)	94
Cc1nn(Cc2nnc(SCc3c(Cl)cccc3Cl)o2)c(C)c1Br	100
c1ccc(-c2csc3ncnc(NCCCn4ccnc4)c23)cc1	104
Cc1noc(-c2ccc(O)cc2O)c1-c1ccc2c(c1)OCCCO2	102
Cc1ccc(C(=O)OCc2nc3ccccc3s2)cc1	106
CCOc1ccc(OCCSc2nc3ccccc3n2Cc2ccccc2)cc1	100
COc1ccc(/C=C2/SC(=S)NC2=O)cc1COc1ccc(F)cc1F	95
CC(C)C(NC(=O)C12CC3CC(CC(C3)C1)C2)C(=O)Nc1nc2ccccc2s1 (stereo unspecified)	90
Cc1nn(CC(=O)O)c(=O)c2cccn12	99
COc1cccc(NC(=O)NCCN2CCN=C2C)c1	102
COc1ccc(-c2[nH]ncc2C(=O)NCCc2ccccc2)cc1	86
CCOC(=O)C1(C(=O)OCC)CCN(S(=O)(=O)c2ccc(C)cc2)c2ccccc2C1=O	98
COC(=O)c1ccc(OCC(O)CN2C(C)CCCC2C)cc1 (stereo unspecified)	100
O=C(COc1ccc(Oc2ccccc2)cc1)NCCCn1ccnc1	99
O=C(c1ccccc1)c1cc(Cl)ccc1N=Cc1ccsc1	96
CCN(CC)C(=S)Nc1ccc2oc(N(C)C)nc2c1	100
Cc1cc(C)c(C)c(S(=O)(=O)N2CC(C)OC(C)C2)c1C (stereo unspecified)	101
C=C(C)c1cccc(C(C)(C)NC(=O)NCCc2ccc(F)cc2)c1	100
CC1(C)C(=O)OC(c2ccco2)C(C)(C)C1=O (stereo unspecified)	104
O=C(NCc1ccc2[nH]c3c(c2c1)CCCC3)Nc1ccccc1	99
CCC1CCCCN1S(=O)(=O)c1ccc2cc(OC)ccc2c1 (stereo unspecified)	102
Cc1nn2c(nc1=O)SCC(c1ccccc1)=N2	100
COC(CNC(=O)C1CCC(CNS(=O)(=O)c2ccccc2)CC1)OC (stereo unspecified)	114
COc1cc(C(=O)N(CCC#N)C2CC(C)CC(C)(C)C2)cc(OC)c1OC (stereo unspecified)	95
COc1cccc(N(Cc2ccc(C)cc2)C2=NC3CS(=O)(=O)CC3S2)c1 (stereo unspecified)	68*
COC(=O)c1ccccc1NC(=O)c1cccs1	100
O=C(Nc1cccc(-c2nc3ccccc3[nH]2)c1)c1ccccc1	100
OCc1ccccc1CNc1cccc2ccccc12	98
O[N+]1=CC=CCC1=S.On1ccccc1=S.[Zn]	100
CCn1c(=N)n(CCOc2ccc(C)cc2)c2ccccc21	100
CCCN(CCC)C(=O)c1cccc2c1-c1ccccc1C2=O	106
Cc1ccc(-n2c(C)ccc2C)cc1	95
COc1cccc(CN2COc3ccc4c(oc(=O)c5ccccc54)c3C2)c1	92
Cc1ccccc1NC1=NC(C)(C)CS1	106
CN1Cc2cc(CN3C(=O)c4ccccc4C3=O)ccc2NC1=O	100
Cc1ccc(NC(=O)c2nccnc2C(=O)O)cc1	106
Cc1ccc(C2C=C(c3ccc(C(C)C)cc3)Nc3ncnn32)cc1 (stereo unspecified)	99
CCOC(=O)c1ccc(-c2coc3cc(O)cc(O)c3c2=O)o1	100
CCN(CC)C(=S)C(=O)Nc1cc(C(F)(F)F)cc(C(F)(F)F)c1	99
CCSc1nc2c(c(=O)[nH]c(=O)n2C)n1Cc1ccc(C)cc1	100

Continuation.
SMILES	VACV E9 pol inh
O=C1CNC(=O)/C1=C\c1ccc(O)cc1	100
O=C(O)CSc1ccccc1Br	98
CCC(=O)Nc1c(-c2ccccc2)c2cc(Br)ccc2[nH]c1=O	100
COc1cc(/C=C2/SC(=Nc3ccccc3C(F)(F)F)NC2=O)ccc1O	116
Cc1cc(C)nc(NC(=S)c2ccc(NC(=O)/C=C/C(=O)O)cc2)n1	103
Cc1ccc(CNC(=O)CCCn2c(=O)c3sccc3n(Cc3ccc(F)cc3Cl)c2=O)cc1	98
CC1CCN(S(=O)(=O)c2ccc(Cl)cc2)CC1	100
O=C(c1ccccc1)C(Sc1nc2ccccc2[nH]1)c1ccccc1 (stereo unspecified)	100
CCc1ccc(-c2nc(CSCC(=O)N3CCc4ccccc4C3)c(C)o2)cc1	101
CN1CCN(c2cc(Cl)nc(N)n2)CC1	103
O=C1c2ccccc2C(=O)N1CN1CCC(O)(c2ccc(Cl)cc2)CC1	100
COc1cc(/C=C2/SC(=NCc3ccccc3)N(Cc3ccccc3)C2=O)cc(OC)c1OC	100
COc1ccccc1C1=NOC(C(=O)NC2CCCC2)C1 (stereo unspecified)	89
COc1cc2c(cc1OC)C(C)N(C(=O)c1nn(C)c3c1CSc1ccccc1-3)CC2 (stereo unspecified)	95
O=C(NCC1CCCO1)c1cc2c(s1)CCC2 (stereo unspecified)	103
CCOc1nc(NC(=O)NC(=O)c2c(F)cccc2F)nc(-c2ccccc2)n1	99
COc1ccc2c(C#N)c3ccccn3c2c1	72*
O=C(O)CC(NC(=O)Cc1ccccc1)C(F)(F)F (stereo unspecified)	107
COC(=O)CNC(=O)c1cn(-c2ccccc2)nc1-c1ccc(C)cc1	104
C=Cc1ccc(Cn2c(C(=O)O)c(CNCCc3ccc(SC)cc3)c3ccccc32)cc1	105
C[n+]1ccn(-c2ccccc2C#N)c1	90
COC(=O)C(C)Sc1nc2c([nH]c3ccccc32)c(=O)n1-c1cc(C)cc(C)c1 (stereo unspecified)	100
CCN1C(=S)NC2c3cc(Br)ccc3OC1(C)C2C(=O)Nc1ccc(Cl)cc1 (stereo unspecified)	102
Cc1ccc(NC(=O)C2CCCN2S(=O)(=O)c2ccc3nc(-c4ccccc4)[nH]c3c2)cc1 (stereo unspecified)	88
c1cncc(C2Nc3ccccc3-n3cccc32)c1 (stereo unspecified)	79
CN1CCN2c3ccccc3Cc3ccccc3C2C1 (stereo unspecified)	100
COC(=O)c1sc(NC(=O)c2ccccc2)c(C#N)c1C	97
Brc1ccc(-c2nnc3sc(CN4CCC5(CC4)OCCO5)cn23)cc1	100
Cc1nc2ccc(NS(=O)(=O)c3ccccc3C(F)(F)F)cc2o1	94
FC(F)(F)c1cc(-c2ccccc2)nc(NC2CCCC2)n1	88
Oc1ccc(-c2nc3sc(-c4ccc(O)cc4)nc3s2)cc1	101
CCN(CCCNc1nnc2c3ccccc3n(CC)c2n1)c1cccc(C)c1	115
COc1ccc(Nc2nc(N3CCN(C)CC3)nc3ccccc23)c(OC)c1	53*
O=C1CC2(CCCC2)CC(=O)N1CCCCN1CCN(c2ncccn2)CC1	100
CCOC(=O)C(C)(C)Sc1nc2c(c(=O)n1-c1ccc(F)cc1)SCC2	100
Cc1ccc(OC(=O)Cn2c(C(F)(F)F)nc3ccccc32)cc1	107
C(=NCc1cccnc1)c1c2ccccc2cc2ccccc12	42*
Cc1cccc(NC2=NC(C)CS2)c1 (stereo unspecified)	99
CCOC(=O)N1CCN(CC(O)COc2ccc(-c3ccccc3)cc2)CC1 (stereo unspecified)	93
O=S(=O)(NCCN1CCOCC1)c1ccc2ccccc2c1	98
CCC(=O)N1C(CC(=O)Nc2ccc(F)cc2)C(=O)NC2CCCCC21 (stereo unspecified)	103
N#CC1=C(SCC(=O)NCc2ccccc2)NC2=C(C(=O)CCC2)C1c1ccco1 (stereo unspecified)	100
Cc1ccc2cc(CCNC(=O)C3CCCC3)c(=O)[nH]c2c1	101
COc1cccc(/C=C2/Sc3ccc(C(=O)NCC(OC)OC)cc3NC2=O)c1	104
O=C(c1ccc(F)cc1)c1c[nH]c(C(=O)NCc2ccc(F)cc2)c1	99
CCCCS(=O)(=O)NC1=NCN(C2CCN(Cc3ccccc3)CC2)CN1	101
CCN(C(=O)c1oc2ccccc2c1C)c1ccccc1	100
O=C(O)c1ccc(N=Cc2cn(Cc3ccccc3)c3ccccc23)cc1	101
CCN1CCN(CC(O)COc2cccc(C)c2)CC1 (stereo unspecified)	100
O=C(O)C1CC(=O)N(CCC23CC4CC(CC(C4)C2)C3)C(=Nc2ccc(Cl)cc2)S1 (stereo unspecified)	103
CCOC(=O)/C(=N\O)C1=NC2(CCCC2)Cc2cc(OC)c(OC)cc21	100
CCN(CC)CCOC(=O)C1(C2CCCCC2)CCCCC1	90
Cc1c(CC(=O)O)c(=O)oc2cc3oc4c(c3cc12)CCCC4	83
c1ccc(Oc2cccc(Oc3ccccc3)c2)cc1	100
CC(C)C1CC(CCN)(Cc2ccccc2)CCO1 (stereo unspecified)	88
CCOC(=O)c1nn(-c2ccccc2)c(=O)c2c(N)c(C#N)c(-c3ccco3)cc12	106
O=c1oc2ccccc2n1Cc1ccccc1Cl	95
O=C(Cc1ccccc1)NC1CCN(C(=O)c2cccs2)CC1	106
NC1=NC(=O)/C(=C\c2ccc(F)cc2)S1	80
O=C(O)/C=C/C(=O)Nc1ccc(N2CCOCC2)cc1	96

Going on with the list:
SMILES	VACV E9 pol inh
O=C(COC(=O)c1sc2ccccc2c1Cl)Nc1ccccc1	96
CC(C)Cn1c(=O)c2cc3c(=O)n(CC(C)C)c(=O)c3c(C(=O)c3ccc(Cl)cc3)c2c1=O	100
Cc1ccc(C2=NN(CCC(=O)N3CCC(C(N)=O)CC3)C(=O)CC2)cc1	112
CCCCN(Cc1ccccc1)C(=O)C1CCN(Cc2cccc(O)c2)CC1	103
Nc1ccccc1NCCc1ccccc1	94
Cc1cccc(NS(=O)(=O)c2cccs2)c1C	102
COC(=O)C1=C(C)N=c2s/c(=C/c3ccc(OC)cc3)c(=O)n2C1c1cccs1 (stereo unspecified)	100
O=C(Cc1ccccc1)N1CCN(CCCc2ccccc2)CC1	103
COc1ccc(-c2nc(C)c(CCNS(=O)(=O)c3ccc4c(c3)OCCO4)s2)cc1OC	102
O=C(CSCc1ccccc1)Nc1nnc(SCC(=O)N2CCCCCC2)s1	101
CCOc1ccc(C2=CC(c3cccc(OC)c3)c3ccccc3O2)cc1 (stereo unspecified)	100
COc1ccc(N=Cc2ccc3ccccc3c2)cc1	101

For reference, part of the list above:
SMILES	VACV E9 pol inh
O=C(COC(=O)c1sc2ccccc2c1Cl)Nc1ccccc1	96
CC(C)Cn1c(=O)c2cc3c(=O)n(CC(C)C)c(=O)c3c(C(=O)c3ccc(Cl)cc3)c2c1=O	100
Cc1ccc(C2=NN(CCC(=O)N3CCC(C(N)=O)CC3)C(=O)CC2)cc1	112
CCCCN(Cc1ccccc1)C(=O)C1CCN(Cc2cccc(O)c2)CC1	103
Nc1ccccc1NCCc1ccccc1	94
Cc1cccc(NS(=O)(=O)c2cccs2)c1C	102
COC(=O)C1=C(C)N=c2s/c(=C/c3ccc(OC)cc3)c(=O)n2C1c1cccs1 (stereo unspecified)	100
O=C(Cc1ccccc1)N1CCN(CCCc2ccccc2)CC1	103
COc1ccc(-c2nc(C)c(CCNS(=O)(=O)c3ccc4c(c3)OCCO4)s2)cc1OC	102
O=C(CSCc1ccccc1)Nc1nnc(SCC(=O)N2CCCCCC2)s1	101
CCOc1ccc(C2=CC(c3cccc(OC)c3)c3ccccc3O2)cc1 (stereo unspecified)	100
COc1ccc(N=Cc2ccc3ccccc3c2)cc1	101

Further structures.
SMILES	VACV E9 pol inh
N#Cc1ccc(C(=O)OCc2nc3ccccc3s2)cc1	100
NC(=O)C1CCN(Cn2nnc3ccccc32)CC1	98
CCN(CC)c1ncnc2sc(C)c(C)c12	100
O=C1C(c2cc(Cl)cc(Cl)c2)=C(O)c2ccccc21	91
CC1(C)CC(=O)C(C=NCc2ccco2)=C(O)C1	100
COCC(C)NS(=O)(=O)c1ccc(F)cc1 (stereo unspecified)	104
COc1ccc(N=c2scc(C)n2C(=O)c2ccccc2Cl)cc1	92
S=C(Nc1ccccc1)Nc1ccc2c(c1)oc1ccccc12	100
O=C(Cn1cncn1)c1ccc(Br)cc1Br	86

Three entries already listed, ordered by formula weight, largest number first:
SMILES	VACV E9 pol inh
COc1ccc(N=c2scc(C)n2C(=O)c2ccccc2Cl)cc1	92
S=C(Nc1ccccc1)Nc1ccc2c(c1)oc1ccccc12	100
O=C1C(c2cc(Cl)cc(Cl)c2)=C(O)c2ccccc21	91
